NS1 inh: inhibitors of influenza NS1 protein function. 270,000 tested, 0.4% active. S. cerevisiae slowed by influenza A NS1, growth recovery by OD600. Potency, µM (doses to about 46.1 µM), for inactives: at the highest dose activity, positive = more growth; active means well fitted rising curve with a large enough effect; inconclusive means small, poorly fitted or top-dose-only effect; inactive means no such curve, though single readings can be large or run the other way; also: nearly all actives have a fitted effect of over 50% in size
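In this qHTS, NS1 from influenza A is expressed in budding yeast, where it slows growth. Cells are switched from glucose to 2% galactose medium (pH 6.0, -URA), treated with compound, and growth recovery is read at OD600.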
2A StopGo: FMDV 2A StopGo reporter, luciferase signal; human cells with a luciferase reporter of 2A StopGo recoding; control for the full effect not named in the record; AID 1159524; Potency, µM (top dose mostly 57.9 µM), without a hit: at the top dose signal change, negative = less light; 410,000 tested, 1.2% active; active = well fitted falling curve with a large enough effect; inconclusive = small, poorly fitted or top-dose-only effect; inactive = no such curve, though single readings can be large or run the other way; tested in HEK293T cells; also: % is scaled to controls: 0 for no effect and ±100 for the full control effect; nearly all actives have a fitted effect of over 45% in size; luciferase light after 4 h
Cruzain noTriton: blocks cruzain activity in detergent-free assay; Potency, µM, inactives show max response, negative = inhibition, hits mostly inhibitors; purified cruzain, Z-FR-AMC fluorescence, no detergent; P25779; 200,000 tested, 2.3% active; AID 1476;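 also: plate controls were enzyme without inhibitor for no effect and buffer without enzyme for full effect; nearly all actives have a fitted effect of over 40% in size; top concentration of the series not given in the record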
Target sequence (P25779 123-467 limits assumed): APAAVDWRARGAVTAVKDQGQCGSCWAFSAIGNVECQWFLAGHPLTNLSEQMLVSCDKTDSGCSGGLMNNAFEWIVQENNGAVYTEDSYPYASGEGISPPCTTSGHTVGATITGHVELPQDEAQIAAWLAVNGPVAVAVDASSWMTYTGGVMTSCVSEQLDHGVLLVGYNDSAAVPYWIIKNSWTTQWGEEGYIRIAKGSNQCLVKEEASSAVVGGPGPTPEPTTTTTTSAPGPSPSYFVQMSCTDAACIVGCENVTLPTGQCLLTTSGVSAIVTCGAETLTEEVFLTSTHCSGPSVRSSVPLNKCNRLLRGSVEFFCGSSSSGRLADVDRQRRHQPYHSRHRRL
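Detergent-free condition (0.00005% Triton X-100) in acetate buffer pH 5.5 with DTT. 1.5 nM enzyme and compound were pre-mixed 15 min, then 2 uM Z-FR-AMC substrate added; reaction progress from fluorescence change between first and third reads (60 s).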
Lassa entry inh: Lassa virus entry inhibition. Lassa virus pseudotype entry inhibition, cell reporter; control for the full effect not named in the record. Potency, µM (doses to about 37.9 µM), for the others: at the top dose activity change, negative = inhibition, usual class: inhibitors. 300,000 tested, 1.2% active; active means well fitted inhibition curve with a large enough effect; inconclusive means small, poorly fitted or top-dose-only effect, or effect the other way; inactive means flat fitted curve, though single readings scatter; tested in HEK293 cells; also: % is scaled to controls: 0 for no effect and ±100 for the full control effect; nearly all actives have a fitted effect of over 50% in size; luciferase read-out
RE007 growth inh: less growth of the S. pombe RE007 Vpr strain | Potency, µM (top dose mostly 92.2 µM), inactives show at the highest dose activity change, negative = less growth | 360,000 tested, 0.21% active | S. pombe RE007 Vpr strain, BacTiter-Glo ATP luminescence, 24 h; control for the full effect not named in the record; active = well fitted falling curve with a large enough effect; inconclusive = small, poorly fitted or top-dose-only effect; inactive = no such curve, though single readings can be large or run the other way;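 also: % is scaled to controls: 0 for no effect and ±100 for the full control effect; nearly all actives have a fitted effect of over 50% in size; the assay follows cell death caused by Vpr and the record does not say whether a fall means rescue or toxicity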
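Fission yeast RE007 carrying one integrated HIV-1 vpr copy, seeded at OD 0.01 in PMG+AL medium with 23 nL pinned compound. Grown 24 h at 30 degrees; viability read by BacTiter-Glo luminescence after 5 min.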
Cruzain Triton: cruzain (T. cruzi) inhibition with detergent; purified cruzain, Z-FR-AMC fluorescence, 0.01% Triton; AID 1478; Potency, µM, for the others: max response, negative = inhibition, usual class: inhibitors; P25779; 200,000 tested, 0.43% active;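 also: plate controls were neutral wells for no effect and buffer without enzyme for full effect; nearly all actives have a fitted effect of over 40% in size; top concentration of the series not given in the record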
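15 min RT preincubation of 1.5 nM cruzain with compound, then 2 uM Z-FR-AMC added; kinetic AMC fluorescence, 60 s delta. Triton X-100 0.01%, pH 5.5.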
MARV entry inh: blocks Marburg virus binding to or entry into cells. Marburg virus pseudotyped entry inhibition, cell reporter; control for the full effect not named in the record; about a third of the inactives were read at about 46 µM. Potency, µM (top dose mostly 37.8 µM), without a hit: at the highest dose activity change, negative = inhibition, most hits filed as inhibitors. 300,000 tested, 1.8% active; active = well fitted inhibition curve with a large enough effect; inconclusive = small, poorly fitted or top-dose-only effect, or effect the other way; inactive = flat fitted curve, though single readings scatter; tested in HEK293 cells; about a fifth of its hits are not listed in these tables; also: % is scaled to controls: 0 for no effect and ±100 for the full control effect; luciferase read-out
SARS PLP yeast: inhibitors of SARS-CoV papain-like protease in yeast. Potency, µM (top dose mostly 32.9 µM), inactives show top-dose activity, positive = growth rescue. 330,000 tested, 0.19% active. AID 485353. S. cerevisiae expressing SARS-CoV PLpro, growth rescue; control for the full effect not named in the record; active means well fitted rising curve with a large enough effect; inconclusive means small, poorly fitted or top-dose-only effect; inactive means no such curve, though single readings can be large or run the other way; also: 0% is about no effect; nearly all actives have a fitted effect of over 55% in size; growth read by luminescence after 48 h
The depositor's hits bear a star; ? = inconclusive; . = not tested or not shown; & = joins results of further samples; [ ] = dose if it differs, or a comment. Unless noted, calls follow the shape of the dose curve; as a rule, active = well fitted curve in the direction sought with a large enough effect; inconclusive = small, poorly fitted or top-dose-only effect, or another doubt; inactive = no such curve, though single readings can be large; an effect the other way counts as inactive or inconclusive. Potency is read from the fitted curve at half-maximal effect.

Below each SMILES – NS1 inh	2A StopGo	Cruzain noTriton	Lassa entry inh	RE007 growth inh	Cruzain Triton	MARV entry inh	SARS PLP yeast
1. COCCN(CCOC)S(=O)(=O)c1ccc(C(=O)Nc2nc(C)c(C(C)=O)s2)cc1
 : 1%	44%[activator]	21%	27%	-7%	-9.1%	27%	-15%
2. CCn1ncc(Br)c1C(=O)Nc1sc2c(c1C(N)=O)CCC2
 : -17%	.	-7%	2%	12%	-4.9%	-10%	-3%
3. CCOC(=O)C1(CC2CCCCO2)CCN(C(=O)Nc2ccccc2SC)CC1 (stereo not drawn)
 : -4%	0%	.	19%[46.1 µM]	-4%	.	17%[46.1 µM]	-1%
4. COC(=O)c1nn(-c2ccc(OC)cc2)c(=O)cc1Oc1cccc(Cl)c1
 : -9%	-11%	-5%	-18%	-16%	-1.7%	?	-8%
5. CCN1C(C(=O)c2ccccc2)=C(OC(=O)COc2ccccc2)c2ccccc2S1(=O)=O
 : .	-8%	-26%	-4%[46.1 µM]	.	-7.7%	2%[46.1 µM]	.
6. COc1ccc(C2C(C#N)=C(N)OC(C(C)(C)C)=C2C#N)cc1OC (stereo not drawn)
 : ?	-14%	-3%	-1%	-4%	-0.4%	0%	0%
7. CC(=O)Nc1ccc(C(=S)NCCCO)cc1
 : .	28%	.	.	-7%	.	5%[46.1 µM]	6%
8. O=C1c2cc(N3CCCC3)c([N+](=O)[O-])cc2C(=O)N1c1ccccc1
 : 15%	-12%	4%	9%	20%	-7.8%	16%	8%
9. CC1(C)CC2CC(C)(CN2S(=O)(=O)c2ccc(C(=O)Nc3cccc(S(=O)(=O)N4CCOCC4)c3)cc2)C1 (stereo not drawn)
 : 13µM*	?	5%	?	-4%	-4.6%	5.2µM*	27%
10. Cc1cc(C([O-])=C(C(=S)Nc2ccc(F)cc2)[n+]2ccccc2)c(C)n1-c1ccc(F)cc1
 : .	-8%	.	-14%	-15%	.	-20%	.
11. O=C(CCn1cncn1)N1CCCC(N2CCN(c3ccc(F)cc3)CC2)C1 (stereo not drawn)
 : 7%	-18%	.	?	1%	.	12%	2%
12. BrC(=C\c1ccccc1)/C=N/Nc1nc(N2CCOCC2)nc(N2CCOCC2)n1
 : -9%	-26%	?	-17%	-10%	-11%	7.9µM*	-46%
13. CCN(CC(=O)Nc1c(F)cccc1F)C(=O)c1cccc(-n2cccc2)c1
 : .	-6%	.	14%	-6%	.	-9%[46.1 µM]	0%
14. COc1ccc(-c2nc(C)c(C(C)=O)n2O)cc1OC
 : -1%	-1%	-8%	0%	-16%	-2.2%	2%	3%
15. Cn1nccc1CNC(=O)c1ccnn1C
 : 1%	-21%	0%	-3%	24%	5.0%	10%	-2%

The closing 2 entries of the section above are carried over, then new ones follow.
Below each SMILES – NS1 inh	2A StopGo	Cruzain noTriton	Lassa entry inh	RE007 growth inh	Cruzain Triton	MARV entry inh	SARS PLP yeast
14. COc1ccc(-c2nc(C)c(C(C)=O)n2O)cc1OC
 : -1%	-1%	-8%	0%	-16%	-2.2%	2%	3%
15. Cn1nccc1CNC(=O)c1ccnn1C
 : 1%	-21%	0%	-3%	24%	5.0%	10%	-2%
16. O=C(COC(=O)c1cccnc1SCC(=O)NCc1ccccc1)NCc1ccccc1
 : 4%	16%	-11%	1%	1%	-1.2%	-1%	-1%
17. CCOC(=O)c1c(-c2ccccc2)oc2ccc(OCC(=O)O)cc12
 : -4%	-15%	.	.	-4%	.	.	1%
18. Cc1ccc(CN(C)C(=O)c2ccc(S(=O)(=O)N3CCCCCC3)cc2)o1
 : .	-28%	.	-22%	7%	.	9%[46.1 µM]	-10%
19. Cc1c(NC(=O)C2CCN(S(=O)(=O)c3cccs3)CC2)c(=O)n(-c2ccccc2)n1C
 : 2%	-5%	.	.	-6%	.	.	-1%
20. Cc1cccc(OCCn2c(=O)n(C)c3ccccc32)c1
 : -111%	43%[activator]	19%	.	0%	0.3%	.	-9%
21. CN(Cc1ccon1)C(=O)CC1C(=O)NCCN1Cc1ccc(Cl)c(F)c1 (stereo not drawn)
 : 18%	-7%	.	15%	-9%	.	6%	1%
22. O=C(CN1CCN(S(=O)(=O)c2ccc(Br)cc2)CC1)Nc1ccc(F)cc1F
 : -80%	-17%	14%	?	6%	-8.1%	?	-3%
23. O=S(=O)(NCc1ccccc1)c1ccc(-c2cnc(C3CC3)o2)cc1
 : -6%	-1%&-12%	0%	?	-2%	-6.9%	.	3%
24. COc1ccc(/C=C/C(=O)Oc2cccc(/C=N/NC(=O)COc3c(C)cccc3C)c2)cc1
 : 21%	0%	16µM*	?	19%	6.9%	?	1%
25. COc1ccc(N2CCN(C(=O)c3cccnc3SCc3cccc(Br)c3)CC2)cc1
 : .	?	.	13µM*	11%	.	?	-1%
26. Cc1ccc(NC(=O)CSc2nc(N)c3cc4c(nc3n2)CCCC4)cc1
 : 3%	35%[activator]	-11%	?	-15%	-3.4%	?	3%
27. CC1CCN(S(=O)(=O)c2cc(C(=O)NCCc3ccccc3)n(C)c2)CC1
 : .	-10%	11%	0%[46.1 µM]	.	-4.7%	.	.
28. CN(CCNC(=O)c1cc2c(=O)n(C)c3ccccc3c2n1C)Cc1ccccc1
 : -7%	-29%	?	.	-16%	14µM*	-2%	7%
29. Brc1ccc(Cn2c(-c3ccc(Br)o3)nc3ccccc32)o1
 : -21%	0%	?	10%	9%	-13%	-18%	-22%
30. CCCCNc1nc2c(-c3ccccc3)nnn2c2ccccc12
 : 0%	-7%	.	.	-5%	.	.	1%
31. CCC12CN3CC(CC)(CN(C1)C3c1c(C)[nH]c(=O)[nH]c1=O)C2=O (stereo not drawn)
 : .	-15%	6%	-19%[46.1 µM]	.	1.1%	-2%[46.1 µM]	.
32. Cc1cc(C)c(NC(=O)COC(=O)/C=C/c2cccc(C(F)(F)F)c2)c(C)c1
 : 14%	-9%	0%	5%	5%	-5.6%	11%	-3%
33. COc1ccccc1/C=C/C(=O)Nc1nc2n(n1)C(c1ccc(F)cc1)C=C(c1ccccc1)N2 (stereo not drawn)
 : .	-17%	9%	?	.	-6.3%	?	.
34. Cc1onc(-c2c(Cl)cccc2Cl)c1C(O)c1ccccc1 (stereo not drawn)
 : -9%	-26%	.	-19%	1%	.	-2%	1%
35. Cc1ccc(C(=O)Nc2cccc3ccccc23)cc1
 : -5%	47%[activator]	.	.	-16%	.	.	3%
36. Cc1nn(-c2ccccc2)c(C)c1C(=O)OCC(=O)N(C)c1c(N)n(Cc2ccccc2)c(=O)[nH]c1=O
 : .	-16%	.	-15%	1%	.	?	-2%
37. O=C(NNC(=O)c1cc(-c2ccccc2)nc2ccccc12)Nc1cccc(Cl)c1
 : 7%	0%	20µM*	-15%	1%	-0.3%	?	-11%
38. CCCCc1nnc(NC(=O)c2cccc(S(=O)(=O)N3CCN(C)CC3)c2)s1
 : 5%	0%	.	-12%	2%	.	7%	2%
39. Cc1ccc(NC(=O)C(=O)NCC(c2cccnc2)N2CCN(Cc3ccccc3)CC2)cc1Cl (stereo not drawn)
 : .	?	-9%	7%[46.1 µM]	.	-4.6%	.	.
40. CCn1cc(C(=O)NCc2ccco2)c(=O)c2ccc(C)nc21
 : -4%	-19%	.	14%[46.1 µM]	-7%	.	?	-2%
41. O=C(O)c1cc(-c2cccc([N+](=O)[O-])c2)n[nH]1
 : .	-10%	.	1%	-15%	.	3%	2%
42. COc1ccccc1C(=O)Nc1cc2c(cc1C(=O)O)OCCCO2
 : -14%	5%	.	15%	6%	.	15%[46.1 µM]	1%
43. CCOC(=O)NCC(C)(C)CNC(=O)OCC
 : 8%	-17%	9%	14%	-5%	-1.2%	2%	0%
44. O=C(COc1cccc2ccccc12)N/N=C/C=C/c1ccccc1
 : -3%	-15%	?	-2%	-2%	-2.4%	-6%	2%
45. COc1ccc(Cn2nnnc2CN2CCC(c3nc4ccccc4s3)CC2)cc1
 : -58%	20µM*	?	?	-15%	-3.7%	?	-2%
46. Cc1ccc(OCCn2c(=O)sc3ccccc32)cc1
 : -6%	2%	-23%	1%	0%	-12%	?	-29%
47. CCCn1c(SCC(=O)Nc2nnc(CC)s2)nnc1-c1ccco1
 : -10%	-7%	-6%	-4%	10%	1.7%	3%[46.1 µM]	7%
48. COc1ccc(CCN(Cc2cccs2)S(=O)(=O)c2ccc(C(=O)O)cc2)cc1OC
 : 3%	11%	.	8%[46.1 µM]	2%	.	?	1%
49. COc1ccc2c(c1)CC(C)C/C2=N\NC(=O)c1ccco1 (stereo not drawn)
 : .	1%	.	.	1%	.	14%[46.1 µM]	-3%
50. Nc1ccc2nc(CN3CCOCC3)[nH]c2c1
 : -2%	5%	2%	-1%	11%	-2.8%	0%	6%[6.58 µM]
51. CN1/C(=C/C=N/n2cnnc2)C(C)(C)c2ccccc21
 : 0%	.	-3%	9%	-4%	-8.0%	1%	0%
52. CCc1ccc(C(=O)NNc2ccc(Cl)cc2)cc1
 : -68%	42%[activator]	.	.	35%	.	.	-3%
53. NCCCC[C@@H]1NC(=O)c2cc([N+](=O)[O-])cc(I)c2SC[C@@H](C(=O)NCC(N)=O)NC(=O)CNC1=O
 : 26%	19%	6%	1%	12%	-1.9%	-29%	-5%
54. COc1cc(-c2c(C#N)c(N)nc3c2c(C)nn3-c2ccc(C)c(C)c2)cc(OC)c1OC
 : ?	-13%	?	?	11%	-20%	21µM*	0%
55. CSc1nnc(NC(=O)c2cc(=O)c3cc(C)cc(C)c3o2)s1
 : 2%	21%	.	5%	3%	.	-2%	-1%
56. CC(=O)OC(C(=O)N1CCN(c2ccc(F)cc2)CC1)c1ccccc1 (stereo not drawn)
 : -11%	-4%	7%	-1%	-7%	-5.1%	-6%[46.1 µM]	?
57. CCN1C(=O)/C(=C/c2cnn(C)c2C)SC1=S
 : 1%	.	-6%	.	.	5.6%	3%	3%
58. CCNC(=S)Nc1ccc(OCc2nc3ccccc3s2)cc1
 : 7%	33%[activator]	.	?	-21%	.	?	5%
59. N#Cc1ccc(C23CC4(C2)[C@H](CN(Cc2cccnc2)[C@@H]4c2ccccc2)C3c2ccccc2)cc1 (stereo partly drawn)
 : 0%	?	-3%	.	9%	-8.3%	.	-11%
60. CN(C)S(=O)(=O)c1ccc(N2CCCC2)c(C(=O)NC2CCCCC2)c1
 : .	0%	.	-22%	-2%	.	-16%[46.1 µM]	-1%
